Bioassay records (PubChem)
VDR inh: inhibitors of human vitamin D receptor; P11473; VDR-SRC2-3 peptide fluorescence polarization, 2 h; Potency, µM, for the others: max response, negative = inhibition, most hits filed as inhibitors; 0.93% of 400,000 active; AID 504847; active = well fitted inhibition curve with a large enough effect; inconclusive = small, poorly fitted or top-dose-only effect, or another doubt; inactive = no such curve, though single readings can be large or run the other way; also: series mostly up to about 120 µM
Target sequence (P11473 whole entry, looked up): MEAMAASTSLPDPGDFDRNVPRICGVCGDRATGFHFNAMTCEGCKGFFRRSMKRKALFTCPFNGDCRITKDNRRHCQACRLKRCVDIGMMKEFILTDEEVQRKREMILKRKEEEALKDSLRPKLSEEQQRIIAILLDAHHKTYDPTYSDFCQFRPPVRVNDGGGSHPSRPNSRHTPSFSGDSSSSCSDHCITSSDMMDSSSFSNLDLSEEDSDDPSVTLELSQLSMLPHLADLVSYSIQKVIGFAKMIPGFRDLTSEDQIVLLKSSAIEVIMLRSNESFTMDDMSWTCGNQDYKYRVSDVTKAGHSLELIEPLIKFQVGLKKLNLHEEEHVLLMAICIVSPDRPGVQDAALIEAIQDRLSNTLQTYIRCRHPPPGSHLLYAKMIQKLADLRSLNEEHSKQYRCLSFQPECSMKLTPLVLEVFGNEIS
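Two reagent solutions held at 4 deg C in the dark were dispensed, compounds pinned at 23 nl, and the mixture incubated 2 h at room temperature. Read-out: fluorescence polarization of VDR–SRC2-3 peptide binding.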
Starred values were filed as active, the others as inactive; u = inconclusive; [ ] = dose if it differs, or a comment. % is scaled to controls: 0 for no effect and ±100 for the full control effect; potency is read from the fitted curve at half-maximal effect. An excerpt; rates above refer to the full screens.

SMILES	VDR inh
O=C(N/N=C/c1ccc2c(c1)OCO2)C(=O)Nc1ccccc1Cl	-14.6%
COCCNC(=O)c1ccc(-n2c(-c3ccccc3)cc3c2CCCCC3)cc1	-1.8%
O=C(O)C1CC(c2ccccc2)=Nc2ccccc2S1 (configuration not stated)	-18.0%
COc1cc(NC(=O)COC(=O)CNC(=O)c2ccc(C)s2)cc(OC)c1	-12.4%
CC(C)CC(=O)Nc1ccccc1N1CCN(c2ccc(F)cc2)CC1	-6.3%
CC(C)NC(=O)NNc1c(Cl)cncc1Cl	0.4%
COC(=O)c1cc(-c2ccccc2)n(CCN)c1C	-22.9%
COc1cc(S(=O)(=O)Nc2ccccc2N2CCCCC2)ccc1NC(C)=O	26.5%
CCOc1ccc(C2=Nn3c(nnc3-c3ccco3)SC2)cc1	-9.3%
COc1ccccc1C(=O)Nc1nnc(-c2ccc(F)cc2)o1	1.8%
Cc1ccc2cc(C#N)c(SCC(=O)NCc3ccco3)nc2c1	7.1%
CCc1ccccc1N(CC)C(=O)c1c(C)oc2ncn(C)c(=O)c12	1.4%
CCOC(=O)c1ccccc1NC(=O)Cn1cnc2c(nnn2-c2ccc(C)cc2)c1=O	-25.6%
O=C1c2ccccc2/C(=C\C#Cc2ccccn2)N1c1ccccc1	3.0%
CC1CCCN(S(=O)(=O)c2cc(C(=O)NCCc3ccccc3)n(C)c2)C1 (configuration not stated)	-15.3%
CS(=O)(=O)c1ccccc1C(=O)Nc1cc2c(cc1C(=O)O)OCCCO2	6.8%
CCOC(=O)Cc1csc(NC(=O)CSc2nncn2C)n1	1.3%
OCCC1CN(Cc2cnc(N3CCOCC3)s2)CCN1C1CCCC1 (configuration not stated)	11.3%
CC(C)OC(=O)CSc1nnc(Cc2ccccc2)n1CC1CCCO1 (configuration not stated)	-13.8%
O=C(c1ccc2c(c1)OCO2)C1CCCN(Cc2ccc(OC(F)F)cc2)C1 (configuration not stated)	-14.4%

2 of the compounds above, as labelled records:
> O=C1c2ccccc2/C(=C\C#Cc2ccccn2)N1c1ccccc1
  VDR inh = 3.0%
> CCc1ccccc1N(CC)C(=O)c1c(C)oc2ncn(C)c(=O)c12
  VDR inh = 1.4%

(listing goes on)
SMILES	VDR inh
CC(C(=O)Nc1ccc2c(c1)OCCO2)n1nnc(-c2ccccc2)n1 (configuration not stated)	-0.8%
CSc1ccc(/C=N/NC(=O)c2sccc2C)cc1	4.1%
O=C(Cn1nnc(-c2ccccc2NC(=O)c2ccccc2)n1)Nc1ccc2c(c1)OCCO2	6.8%
Cn1c(/C(C#N)=C(\O)COc2ccc3ccccc3c2)nc2ccccc21	6.7%
CCN(CC)S(=O)(=O)c1ccc2c(c1)N(CC(=O)N1CCN(c3cccc(C)c3)C(C)C1)C(=O)CO2 (configuration not stated)	1.1%
Cc1cc(C)cc(NC(=S)Nc2cccc3cnccc23)c1	-9.5%
c1ccc(CCNc2ncnc3sccc23)nc1	-1.9%
CCOc1ccc(-n2c(CCC(=O)O)ccc2-c2ccc(Br)cc2)cc1	10.2%
Cc1ccccc1OCCCCN1CCCCC1	-4.4%
COc1ccc(C2=NCC(CSc3nccc(=O)[nH]3)S2)cc1 (configuration not stated)	-16.4%
COc1ccccc1N(C)S(=O)(=O)c1ccc(Cl)c(C(=O)N2CCC(C(N)=O)CC2)c1	-0.3%
COc1ccccc1/C=C/C(=O)NCC(=O)N/N=C/c1ccc(C(=O)O)cc1	-1.5%
CC1CCCN(CC(=O)Nc2ccc(S(=O)(=O)NC3CCCCC3)cc2)C1 (configuration not stated)	3.3%
O=C(O)c1cccc(Cn2c(Cl)c(/C=N/Nc3ccccc3)sc2=O)c1	u
C#CCOCCOCCOCCNc1nc(N2CCN(C(=O)[C@H](CCCCN)n3cc(CN)nn3)CC2)nc(N2CCN(C(=O)[C@H](CO)n3cc([C@@H](N)C(C)C)nn3)CC2)n1	-6.8%
Cc1cc(NCCN2CCOCC2)n2nc(C)c(-c3ccccc3)c2n1	7.5%
Cc1cc2oc(=O)c(CC(=O)NCCc3ccccc3F)c(C)c2c2occ(C(C)(C)C)c12	15.9%
COc1cc(C2NC(=O)NC(C)=C2C(=O)Nc2cccc(C)c2C)cc(OC)c1OC (configuration not stated)	8.0%
CC1=CC(=C(C#N)C#N)C=C(C)N1CCN1CCN(C(=O)Nc2ccc(Cl)c(Cl)c2)CC1	8.5%
O=S(=O)(NCc1ccccc1Cl)c1ccc(-n2cnnn2)cc1	-3.4%

3 of the compounds above, with the structure last:
VDR inh	SMILES
-4.4%	Cc1ccccc1OCCCCN1CCCCC1
15.9%	Cc1cc2oc(=O)c(CC(=O)NCCc3ccccc3F)c(C)c2c2occ(C(C)(C)C)c12
1.3%	CCOC(=O)Cc1csc(NC(=O)CSc2nncn2C)n1

Continued:
SMILES	VDR inh
CC(C)CNCC(=O)N1c2ccccc2Sc2ccccc21	-3.1%
CCC(=O)C1=C(c2cccc([N+](=O)[O-])c2)N(C(=O)CC)n2c(nnc2-c2ccccc2)S1	3.7%
COc1ccc(NC(=S)N2CCC(N(C)CC3CCCO3)CC2)cc1Cl (configuration not stated)	-15.3%
COc1ccc(NC(=O)CCc2c(C)nc3nc(CNC(=O)OC(C)(C)C)nn3c2C)cc1OC	7.2%
COc1cccc(Cn2c(=O)c(-c3ccc(Cl)cc3)nc3cnc(N4CCNCC4)nc32)c1	67.6%[activator]
O=C(COC(=O)c1cc2c(s1)CCC2)Nc1ccc(F)cc1	-7.2%
CC(=O)Nc1ccc(NC(=S)Nc2ccc(Br)cc2)cc1	17.1%
COc1ccc(NS(=O)(=O)c2ccc(C)c(C(=O)O)c2)cc1	-17.1%
C=Cc1ccc(CSc2nc(-c3ccc(OC)cc3)nc3c2Cc2c(CO)cnc(C)c2O3)cc1	2.9%
COCCn1c(N)c(Sc2ccccc2[N+](=O)[O-])c(=O)[nH]c1=O	11.6%

Structures above that contain a nitro group on carbon (two):
SMILES	VDR inh
CCC(=O)C1=C(c2cccc([N+](=O)[O-])c2)N(C(=O)CC)n2c(nnc2-c2ccccc2)S1	3.7%
COCCn1c(N)c(Sc2ccccc2[N+](=O)[O-])c(=O)[nH]c1=O	11.6%

(cont.)
SMILES	VDR inh
O=C(Cn1nc(-c2ccccc2Cl)ccc1=O)Nc1ccc(Br)cc1	1.6%
CCOc1ccc(C2NC(=O)c3n[nH]c(C)c32)cc1 (configuration not stated)	0.5%
CCS(=O)(=O)Nc1ccc(-c2nnc(SCC(=O)c3cccc(OC)c3)o2)cc1	-12.9%
Cc1c(NC(=S)NC(=O)C(C)(C)C)c(=O)n(-c2ccccc2)n1C	-0.6%
C=CCSc1nc(C)cc(/C=C\c2ccccc2)c1C#N	14.4%
CSc1ncccc1C(=O)NC(C)C1CC2CCC1C2 (configuration not stated)	-18.2%
O=C(NCc1nnnn1-c1ccc(Cl)cc1)c1ccc(Br)o1	-19.6%
Cc1ccc(C2=NN(CC(=O)O)C(=O)CC2)cc1	-21.2%
CC(C)N(C(=O)COC(=O)c1cc(Cl)cc(Cl)c1N)C(C)C	0.5%
Cn1c(SCC(=O)NN2C(=O)NC(C)(c3ccccc3)C2=O)nnc1-c1ccncc1 (configuration not stated)	10.8%
S=C(N/N=C/c1ccc(Cl)c(Cl)c1)Nc1ccccc1Cl	-25.7%
CCOc1ccc(NC(=O)CN(C)C(=O)Cn2cnc3c2c(=O)n(C)c(=O)n3C)cc1OCC	-14.7%
Cc1ccn2cc(CCNC(=O)CC3CCCCC3)nc2c1	-1.6%
COC(=O)c1[nH]c2cccc(OC)c2c1NC(=O)CCN1CCN(c2ccccc2OC)CC1	9.0%
Cc1ccc(NC(=O)COC(=O)c2ccc([N+](=O)[O-])o2)cc1S(=O)(=O)N1CCCCCC1	-9.8%
Cc1ccc(NC(=O)CN(C)S(=O)(=O)c2ccc3c(c2)n(C)c(=O)c(=O)n3C)cc1	13.1%
COc1ccc(CCN2C(=O)c3ccccc3C2(O)c2ncc[nH]2)cc1OC (configuration not stated)	-6.2%
Cc1ccc(N=C2C(=O)Nc3ccccc32)c(C)c1	39.3%[activator]
O=C(CSc1nnc(-c2cccs2)n1C1CC1)NCC1CCCO1 (configuration not stated)	-9.1%
CCc1noc(C)c1C(=O)Nc1ccc(Cl)c(S(=O)(=O)N2CCCCC2)c1	-2.3%
CC1=C(C(=O)Nc2ccccc2)C(c2cccn2C)n2ncnc2N1 (configuration not stated)	14.4%
CCOC(=O)COc1nc(-c2ccc(Cl)cc2)cc(-c2ccco2)c1C#N	15.6%
CCCN(C(=O)COC(=O)CCOc1ccccc1)c1c(N)n(Cc2ccccc2)c(=O)[nH]c1=O	13.3%
O=c1c2[nH]c3ccccc3c2ncn1CCN1CCCCC1	-8.0%
COC(=O)c1ccc2nc(NC(=O)COC(=O)CSc3nc(C)cc(C)n3)sc2c1	-2.0%
O=C(CSc1nc2ccccc2c(=O)n1-c1ccc(Cl)cc1)N/N=C/C=C/c1ccccc1[N+](=O)[O-]	2.0%
COc1ccc(Cn2c(SCC(=O)NCc3ccc(Cl)cc3)nc3ccsc3c2=O)cc1	0.1%
CCc1nnc(NC(=O)CCC(=O)N2CCCC2)s1	-0.2%
COc1ccc(/C=C(/NC(=O)c2cccs2)C(=O)N2CCOCC2)cc1OC	-22.1%
Cc1c(/C=N\NC(=O)c2ccc([N+](=O)[O-])cc2)cnn1C	5.3%
Cc1nc2ccc(NC(=S)N3CCOCC3)cc2nc1C	-4.3%
Cc1ccc(C)c(N2CCN(S(=O)(=O)c3ccc4oc(=O)c5ncn(C)c5c4c3)CC2)c1	-5.0%
O=C1C(Oc2ccccc2)C(c2ccc3c(c2)OCO3)N1CCc1ccc(F)cc1 (configuration not stated)	-9.5%
O=C(OCCOCCN=C1NS(=O)(=O)c2ccccc21)c1ccncc1	-29.8%
CCCCC(NC(=O)COc1cc2c(c3oc(=O)cc(C)c13)CCC(C)(C)O2)C(=O)O (configuration not stated)	9.8%
CCCc1c(C(=O)OCC)nnc2c(-c3ccccc3)c(C)nn12	-10.8%
COc1cccc(NC(=O)C2CCOC2=O)c1 (configuration not stated)	-15.9%
c1ccc2c3c([nH]c2c1)C(C1CCCCC1)N(Cc1ncc[nH]1)CC3 (configuration not stated)	-5.4%
Cc1ccccc1OCc1nc2c3cnn(-c4ccccc4F)c3ncn2n1	4.8%
O=C1C=C(c2ccc(F)nc2)C[C@@H](c2ccc3c(c2)OCO3)C1	-23.8%
O=C(Nc1ccc(Cl)cc1)c1nc[nH]c1C(=O)N1CCc2ccccc2C1	-21.3%
O=C(NCc1ccccn1)Nc1ccc(Cl)c(Cl)c1	-15.4%
COc1ccc([C@@H]2CC=C(C(=O)O)[C@H](c3cccc(Cl)c3)N2S(=O)(=O)c2ccc(Cl)cc2)cc1	-23.9%
COc1ccc(CNC(=S)Nc2ccccc2Cl)cc1	-0.1%
C=CCc1cc(C)cc(C)c1OCCn1cncn1	-9.0%
O=[N+]([O-])c1ccc(-c2cc(-c3ccncc3)nc3ccc4ccccc4c23)cc1	-13.3%
COc1ccccc1/C=C/C(=O)NCC(=O)N/N=C(/C)c1ccco1	8.2%
COc1ccccc1C(=O)N(Cc1cccs1)C1CCS(=O)(=O)C1 (configuration not stated)	9.8%
O=C(O)c1ccc2c(c1)C1C=CCC1C(c1ccncc1)N2 (configuration not stated)	18.6%
Cc1ccc(OC(=O)c2ccc(S(=O)(=O)N(C)C)cc2)c(-n2nc3ccccc3n2)c1	-4.6%

(cont.)
SMILES	VDR inh
O=C(CCSc1nnc2ccccn12)Nc1ccc2c(c1)OCO2	11.6%
CSc1ccc(S(=O)(=O)N2CCC(C(=O)NCCc3ccccc3)CC2)cc1	-16.3%
CC(C)c1nn2c(=O)cc(COC(=O)c3ccc(NC(=O)C4CCCCC4)cc3)nc2s1	4.6%
COc1cccc(C(=O)NNC(=O)C(=O)Nc2ccc(C)cc2)c1	4.2%
COc1ccc(NC(=O)c2sc3nc(C)cc(C)c3c2N)cc1	-20.1%
CCOc1ccccc1CN1CCN(Cc2nc3c(s2)CCCC3)CC1CCO (configuration not stated)	-15.8%
Cc1cc(C)n(C(=O)/C(C#N)=N\Nc2ccccc2[N+](=O)[O-])n1	2.8%
Nc1ncnc2c1CCC2	1.9%
COc1ccc(/C=N/NC(=O)CSCC(=O)Nc2ccccc2)cc1	10.7%
CC(=O)N(C(C)=O)S(=O)(=O)c1ccc(N=NN2CCOCC2)cc1	-11.5%
COc1cccc(C2CC(c3ccc(NS(C)(=O)=O)cc3)=NN2C(=O)c2ccccc2)c1OC (configuration not stated)	14.7%
CC1CCC/C(=N\NC(=S)Nc2ccccc2)C1 (configuration not stated)	-14.0%
CCS(=O)(=O)c1ccc(-c2cccc(NC(=O)COc3ccccc3)c2)nn1	6.3%
COc1ccc(/C=C2\Oc3ccccc3C2=O)cc1	-15.8%
O=C(CSc1nc2cc(S(=O)(=O)N3CCOCC3)ccc2o1)NC1CCCc2ccccc21 (configuration not stated)	u
CCOC(=O)C1CCN(C(=O)CS(=O)(=O)Cc2nc(-c3ccccc3Cl)oc2C)CC1	-10.4%
Cc1cccn2c(=O)c3cc(C#N)c(=O)n(-c4c(C)n(C)n(-c5ccccc5)c4=O)c3nc12	-7.2%
CCN(Cc1nc(-c2ccc(OC)cc2)no1)C(=O)c1ccc2c(c1)OCO2	-11.6%
COc1ccc(C(=O)OCC(=O)NCc2ccco2)cc1S(=O)(=O)N1CCN(c2cccc(Cl)c2)CC1	-7.5%
CC1=C/C(=C\c2ccc(Br)o2)C(=O)O1	2.5%
COc1ccc(CN(C(=O)c2cccs2)C(C(=O)NC2CCCCC2)c2ccc3ncccc3c2)cc1 (configuration not stated)	-11.8%
O=C(CSc1nc2ccccc2n1Cc1ccccc1)N/N=C/c1ccco1	-7.0%
COc1ccc(C(=O)COC(=O)C(Cc2c[nH]c3ccccc23)NC(=O)c2ccc(C(C)(C)C)cc2)cc1 (configuration not stated)	6.1%
COc1nc(-c2ccc(Cl)cc2)ccc1-c1noc(-c2cccs2)n1	9.9%
